2A Renilla: FMDV 2A StopGo reporter, Renilla signal. HEK cells with a luciferase reporter of 2A StopGo recoding. AID 1745857. hit rate 0.32% among 120,000. Potency, µM (top dose mostly 57.5 µM), for inactives: at the top dose signal change, negative = less light; active means well fitted falling curve with a large enough effect; inconclusive means small, poorly fitted or top-dose-only effect; inactive means no such curve, though single readings can be large or run the other way; note: nearly all actives have a fitted effect of over 55% in size; overnight with compound
2A firefly: lowers the firefly signal of an FMDV 2A StopGo reporter; hit rate 0.23% among 120,000; HEK cells with a luciferase reporter of 2A StopGo recoding; Potency, µM (series often up to 57.5 µM), without a hit: at the highest dose signal change, negative = less light; active = well fitted falling curve with a large enough effect; inconclusive = small, poorly fitted or top-dose-only effect; inactive = no such curve, though single readings can be large or run the other way; note: nearly all actives have a fitted effect of over 60% in size; overnight with compound
An asterisk follows results filed as active; ? = inconclusive; & = joins results of further samples; [ ] = dose if it differs, or a comment. % is set by controls: 0 for no effect and ±100 for the full control effect; potency is the fitted concentration of half-maximal effect. Not all compounds are listed; rates above refer to the full screens.

SMILES | 2A Renilla | 2A firefly
CCC1=Nc2cc(C(=O)NC(C)c3ccccc3)ccc2Sc2ccc(Cl)cc21 (configuration not stated) | -8% | -36%
Cc1ccc(NC(=O)c2cc3c(s2)CCC3)cc1 | 28% | 0%
CCCCCCCCOC(=O)Nc1ccc(C)cc1 | -4% | 10%
Cc1ccccc1CC(=O)Nc1ccc(N2CCOCC2)c(Cl)c1 | 18% | 86%[activator]
CCCCC(=O)OCc1cc(=O)n2nc(C3CC3)sc2n1 | -11% | -1%
CCc1ccccc1NC(=O)C1CCN(S(=O)(=O)c2cn(C)cn2)CC1 | -8% | -18%
Cc1ccc(Cl)cc1N1CCN(C(=O)c2cn(C)c3ccc(S(=O)(=O)N(C)C4CCCCC4)cc3c2=O)CC1 | 1% | 0%
O=C(CCc1cc(Cl)no1)Nc1ccc2oc(-c3ccccc3F)cc(=O)c2c1 | 6% | 197%[activator]
CCCCCCCCCCCCc1ccc(NC(C)=O)cc1 | -1% | 5%
Cc1c(C(=O)N(C)Cc2ccccc2)sc2nc(-c3ccc(F)cc3)cn12 | ? | ?
O=C(Nc1ccc(-c2ccccc2)cc1)c1ccc(F)cc1F | 11% | 157%[activator]
COc1ccc(CCNC(=O)c2cn(C)c3ccc(S(=O)(=O)N(C)C)cc3c2=O)cc1OC | -9% | 0%
NC(=O)CN1CCC(c2nc3ccccc3o2)CC1 | -6% | 7%
COc1ccc(-c2cnnn2-c2ccc(NC(=O)c3c(F)cccc3F)cc2)cc1 | 17% | 47%[activator]
CN(C)c1ccc(C=NCCCCCCN=Cc2ccc(N(C)C)cc2)cc1 | 6% | 24%
CCc1cc2c(CN3CCN(C(=O)C4COc5ccccc5O4)CC3)cc(=O)oc2cc1O (configuration not stated) | -17% | -19%
COc1ccccc1NC(=O)c1sc2nc3n(c(=O)c2c1C)N=C(c1cccc(Br)c1)CS3 | -12% | -13%
COc1cc(C#N)ccc1OCc1ccc(OC(F)F)c(OC)c1 | 0% | 0%
COC(=O)CC(NC(=O)c1ccc(CS(C)(=O)=O)cc1)c1ccc(C)cc1 (configuration not stated) | 16% | 19%
CCc1ccc(C(=O)Oc2ccc3ccccc3c2)cc1 | 6% | 18%
CCOC(=O)c1ccc(NC(=O)C2=C(c3ccccc3)S(=O)(=O)CCO2)cc1 | ? | -12%
COc1cccc(NC(=O)CCNC(=O)Cn2ccc3ccccc3c2=O)c1 | -7% | -12%
c1ccc(CCc2nnc3sc(-c4cc5ccccc5[nH]4)nn23)cc1 | -5% | 0%
COc1ccc2c(CNC3CCCCCC3)c(C(=O)O)n(Cc3ccccc3F)c2c1 | 45%[activator] | -18%
CC(=O)Nc1c(-c2ccccc2)c(C)nn1-c1ccc(C(=O)N2CCN(C3CCCCC3)CC2)cc1 | -6% | 4%
O=S(=O)(Nc1ccc(-c2ccc(N3CCCC3)nn2)cc1)c1ccc(Cl)cc1 | 173%[activator] | 18%
CCCc1nc2ccccc2n1CC(O)c1ccc(F)cc1 (configuration not stated) | 22% | 6%
Clc1ccc2nc(-c3ccc(N4CCOCC4)cc3)c(Nc3ccccc3)n2c1 | -6% | 7%
COc1cc(Cl)c(C)cc1NC(=O)c1nc2ccccc2nc1N1CCCCC1 | 18% | -1%
COc1cc(-c2nc(-c3cccc(Cl)c3)c(-c3ccccc3)[nH]2)cc(OC)c1OC | -11% | 8%
CCCC(C)(NC(=O)OCc1ccccc1)C(=O)O (configuration not stated) | -6% | -1%
O=C1CSC2(C(=O)N(Cc3ccccc3F)c3ccccc32)N1c1ccc(F)cc1 (configuration not stated) | -7% | 0%
CCOC(=O)c1c(S(=O)(=O)N2CCC(C(=O)Nc3ccc(F)cc3F)CC2)c(C)n(C)c1C | 33%[activator] | -13%
Cc1ccc(C)c(S(=O)(=O)N2CCN(Cn3ncc4ccccc4c3=O)CC2)c1 | -15% | -4%
Cc1ccc(C(=O)Nc2ccc3oc(=O)ccc3c2)c(Cl)c1 | -2% | 143%[activator]
CCS(=O)c1ccccc1C(=O)NCc1ccc(C)cc1 (configuration not stated) | -3%[1.06 µM] | 15%
CCCC(=O)N1CCN(S(=O)(=O)c2cc3c(cc2Cl)NC(=O)CO3)CC1 | 20% | 0%
O=C(O)c1ccc(COc2cccc(Cl)c2)s1 | 4% | 132%[activator]
CCC(C(=O)NC1CCCCC1)n1nc(C)c2sc3ccccc3c2c1=O (configuration not stated) | -15%&-12% | -15%&-22%
COc1ccc(S(=O)(=O)NCC2CCC(C(=O)NCC(=O)N3CCc4ccccc4C3)CC2)cc1 (configuration not stated) | -1% | -10%
CCOC(=O)c1c(C)[nH]c(CCC(=O)NCc2ccc(OC)c(OC)c2)c1C | -4% | -13%
Cc1ccc2nc(-c3ccc4c(c3)OCO4)cc(C(=O)O)c2c1 | 10% | 149%[activator]
C=CCCc1ccc(-c2ccc(OCCCCCCCCCC)c(F)c2)nc1 | -7% | 6%
CCc1cnc2c(c1SCC(=O)Nc1ccc(Cl)cc1)c(=O)n(C)c(=O)n2C | -1% | 25%
CC(C)C(=O)Nc1ccc([N+](=O)[O-])cc1 | 4% | 13%
CCCN(CCC)CCCNC(=O)c1cn(CC)c2ccc(S(=O)(=O)N(C)C3CCCCC3)cc2c1=O | 41%[activator] | -26%
Cc1ccccc1-c1cc(C(=O)Nc2nncs2)c2ccccc2n1 | -9% | -2%
CCc1ccc(C(=O)Nc2ccc(C(N)=O)cc2)cc1S(=O)(=O)N1CCOCC1 | 18% | 8%
CCC(C)NC(=O)c1ccccc1-c1ncc(-c2ccccc2F)o1 (configuration not stated) | 24% | 0%
CCc1cccc(C)c1NC(=O)c1cc(S(=O)(=O)N2CCOCC2)cn1C | -18% | -12%
O=C(Cc1ccc(Br)cc1)NC1CCC(c2ccccc2)CC1 (configuration not stated) | 6% | 15%
Cc1sc(-c2ccsc2)nc1-c1ccc(F)c(F)c1 | -1% | 37%[activator]
CC(=O)N1CCC2(CC1)CC(=O)c1ccc(OCC(=O)NC3CCS(=O)(=O)C3)cc1O2 (configuration not stated) | -2% | -1%
Cc1cccc(C(C)C)c1NC(=O)c1ccc(CSc2ccccc2)cc1 | 7% | 4%
CC(=O)c1ccc(NC(=O)c2ccc(Cl)cc2N2CCCC2=O)cc1 | -12% | 7%
O=C(Cc1cc(Cl)c2c(c1)OCCO2)NC1CCN(C2CC2)CC1 | -4% | 6%
Cn1c(-c2ccccc2)cnc1NCc1ccccc1O | -7% | 0%
Cc1ccc(OCCC(=O)NC23CC4CC(CC(C4)C2)C3)cc1 | 11% | 80%[activator]
O=C(O)c1cccc(CSc2cc(Cl)ccc2Cl)c1 | 50%[activator] | 0%
CCOc1cc(-c2ccc(OCC(=O)OC)c(OC)c2)cc(=O)c2c(C)oc(C)c12 | -18% | -11%
More records
SMILES | 2A Renilla | 2A firefly
CCN(Cc1cc2cc(OC)ccc2[nH]c1=O)C(=O)c1ccco1 | 24% | 33%[activator]
Cc1ccc2c(C(=O)CSc3ccccc3)c(C)[nH]c2c1 | -13% | 59%[activator]
CCCNCc1ccc(OCCO)cc1 | 2% | 4%
CCOCCOC(C)C(=O)NCC(C)(C)c1ccccc1OC (configuration not stated) | 11% | 9%
Cc1occc1C(=O)N1CC(C)CC(C)C1 (configuration not stated) | -11% | -5%
O=C(NC1CCc2ccccc21)c1ccc2ccccc2n1 (configuration not stated) | 110%[activator] | 51%[activator]
Cc1cc(C)n2c(Nc3ccccc3C)c(-c3cccs3)nc2n1 | -10% | -23%
CCCCOC(=O)c1ccc(OC(=O)c2sc3ncn(Cc4ccccc4Cl)c(=O)c3c2C)cc1 | -11% | -11%
CNS(=O)(=O)c1cn(CC(=O)Nc2cccc(C(F)(F)F)c2)cc1S(=O)(=O)NC | 148%[activator] | -9%
Cn1c(=O)c2c(nc(SCC(=O)Nc3ccccc3F)n2Cc2ccc(Cl)cc2)n(C)c1=O | 0% | 1%
COc1ccc(S(=O)(=O)NCCc2sc(C)nc2C)cc1 | 164%[activator] | 27%
CC(C)(C)C(=O)Nc1ccc2oc(-c3ccc(F)cc3)nc2c1 | -3% | ?
CCN(CC)CCN(C(=O)c1ccco1)c1nc2c(C)cccc2s1 | -9% | 82%[activator]
N#Cc1nc(/C=C/c2cccs2)oc1NCCCn1ccnc1 | 25% | 28%
CCOC(=O)c1cccc(NC(=O)C2CCN(c3nnc(C)c4c(C)n(-c5ccccc5)nc34)CC2)c1 | 7%&2% | 11%&16%
COc1cc(C)c(C)cc1S(=O)(=O)Nc1cccc(-c2ccc(N3CCOCC3)nn2)c1 | -4% | 5%
Cc1occc1C(=O)Nc1nc(CC(=O)Nc2ccccc2)cs1 | -4% | 0%
CC(C)=CC(=O)NCCc1ccsc1 | 18% | 100%[activator]
Cc1ccc(-c2nsc(NC(=O)c3cc(=O)c4ccc(C)c(C)c4o3)n2)s1 | -18% | 5%
O=C(c1cnc2c(cnn2Cc2ccccc2)c1)N1CCCc2ccccc21 | ? | ?
O=c1[nH]cnc2[nH]ncc12 | 4% | -16%[11.5 µM]
COc1ccc(-c2nc3cnccc3o2)cc1NC(=O)c1cccnc1 | 45%[activator] | 0%
O=C(Cn1cnc(S(=O)(=O)N2CCOCC2)c1)Nc1ccc(-c2ccno2)cc1 | -3% | -1%
O=C(O)c1ccccc1I | 1% | -4%
COCCS(=O)(=O)c1ccc(C(=O)OCc2cccc(OC)c2)cc1 | 0% | 5%
Cc1cccc(NC(=O)c2ccc3c(c2)CCN3S(=O)(=O)c2ccccc2)c1C | 66%[activator] | -14%
Cc1ccc2nc(C)c(C(=O)N3CCN(S(=O)(=O)c4ccccc4)CC3)cc2c1 | 4% | 24%
CCOC(=O)C1=C(C)NC(=O)C1(NC(=O)c1ccco1)C(F)(F)F (configuration not stated) | -6% | -4%
Cc1ccnc(NC(=O)c2ccc3nc(C)c(C)nc3c2)c1 | 59%[activator] | 13%
Cc1ccc(-c2nc3ccccn3c2Nc2ccccc2C)s1 | 0% | 43%[activator]

14 entries from above, arranged by number of heavy atoms, smallest number first:
SMILES | 2A Renilla | 2A firefly
O=c1[nH]cnc2[nH]ncc12 | 4% | -16%[11.5 µM]
CC(C)=CC(=O)NCCc1ccsc1 | 18% | 100%[activator]
COc1ccc(S(=O)(=O)NCCc2sc(C)nc2C)cc1 | 164%[activator] | 27%
Cc1ccnc(NC(=O)c2ccc3nc(C)c(C)nc3c2)c1 | 59%[activator] | 13%
CC(C)(C)C(=O)Nc1ccc2oc(-c3ccc(F)cc3)nc2c1 | -3% | ?
Cc1occc1C(=O)Nc1nc(CC(=O)Nc2ccccc2)cs1 | -4% | 0%
COCCS(=O)(=O)c1ccc(C(=O)OCc2cccc(OC)c2)cc1 | 0% | 5%
COc1ccc(-c2nc3cnccc3o2)cc1NC(=O)c1cccnc1 | 45%[activator] | 0%
Cc1ccc(-c2nsc(NC(=O)c3cc(=O)c4ccc(C)c(C)c4o3)n2)s1 | -18% | 5%
O=C(c1cnc2c(cnn2Cc2ccccc2)c1)N1CCCc2ccccc21 | ? | ?
Cc1cccc(NC(=O)c2ccc3c(c2)CCN3S(=O)(=O)c2ccccc2)c1C | 66%[activator] | -14%
COc1cc(C)c(C)cc1S(=O)(=O)Nc1cccc(-c2ccc(N3CCOCC3)nn2)c1 | -4% | 5%
Cn1c(=O)c2c(nc(SCC(=O)Nc3ccccc3F)n2Cc2ccc(Cl)cc2)n(C)c1=O | 0% | 1%
CCOC(=O)c1cccc(NC(=O)C2CCN(c3nnc(C)c4c(C)n(-c5ccccc5)nc34)CC2)c1 | 7%&2% | 11%&16%

Additional compounds:
SMILES | 2A Renilla | 2A firefly
CSCCC(NS(=O)(=O)c1ccc2c(c1)oc(=O)n2C)C(=O)Nc1ccc(C)c(C)c1 (configuration not stated) | 21% | 44%[activator]
CCOC(=O)c1cccc(NC(=O)c2cc(S(=O)(=O)N3CCCC(C)C3)cn2C)c1 (configuration not stated) | 19% | -4%
COC(=O)[C@@H](NC(=O)NCc1ccccc1)C(C)C | 7% | 11%
O=C(C1CC1)N1CCc2cc(Br)cc(S(=O)(=O)N3CCN(c4ccccc4)CC3)c21 | 13% | -7%
CC(C)C(=O)Nc1ccc2[nH]cc(C(C(=O)O)N3CCN(CC(=O)N(C)C)CC3)c2c1 (configuration not stated) | -3% | -3%
CS(=O)(=O)Oc1ccc2c(c1)O/C(=C\c1ccccc1)C2=O | 22% | 145%[activator]
O=C(Nc1ccc2oc(-c3cccnc3)nc2c1)c1cccc([N+](=O)[O-])c1 | -1% | 60%[activator]
COc1ccc(NC(=O)c2nc(-c3ccccc3)oc2C)c(OC)c1 | -18% | 2%
CCOc1cc(/C=C2\NC(=O)NC2=O)c(Br)cc1O | ? | ?
CCNC(=O)NC(=O)CSc1nc(C)c(C)n1C1CCCC1 | -1% | 7%
COc1ccc(-c2nc(NC(=O)c3cc(OC)c(OC)c(OC)c3)sc2C)cc1 | -18% | -10%
CC(=O)c1cccc(Nc2nc(-c3ccc(C)cc3)nc3ccccc23)c1 | 11% | 12%
CCCCc1nn2cc(-c3ccccc3)nc2s1 | 10% | 103%[activator]
Cc1cc(C)n(-c2nc3ccccc3nc2Nc2ccc(C(C)C)cc2)n1 | 23% | 12%
CCCCCCc1ccc(C(=O)Nc2ccc(C)cc2)cc1 | ? | 110%[activator]
CCCc1cc(=O)oc2c(C)c(OCC(=O)c3ccccc3)ccc12 | -5% | 4%

Bioassay records as filed in PubChem BioAssay.
